FGF22 binding – FGF22 (human) thermal shift binding; calls only at 9.99 µM; AID 651658; Q9HCT0; recombinant FGF22 thermal shift, SYPRO orange fluorescence; percent of sucrose octasulfate shift, DMSO zero; 340,000 tested, 1.5% active;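 active = melting point raised past a set limit in the mean and every replicate; three in four hits are not shown here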
Target sequence (Q9HCT0 whole entry, looked up): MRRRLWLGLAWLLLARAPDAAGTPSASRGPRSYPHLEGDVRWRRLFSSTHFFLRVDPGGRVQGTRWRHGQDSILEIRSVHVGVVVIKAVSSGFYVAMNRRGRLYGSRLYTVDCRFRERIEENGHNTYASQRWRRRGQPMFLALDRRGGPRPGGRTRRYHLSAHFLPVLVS
AF4-AF9 inh – blocks AF4 peptide binding to human AF9. AlphaScreen, biotin-AF4 peptide binding to FLAG-AF9. 350,000 tested, 0.47% active. inhibition, % at 10 µM. AID 651704. P42568;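 active = every replicate reaching a set inhibition limit, whatever the replicate mean, cut at about 25% in these data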;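 note: 0% = plate neutral control median and 100% = total signal loss; the record names both 10 and 1 µM as test concentration; the first replicate is given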
Target sequence (P42568 whole entry, looked up): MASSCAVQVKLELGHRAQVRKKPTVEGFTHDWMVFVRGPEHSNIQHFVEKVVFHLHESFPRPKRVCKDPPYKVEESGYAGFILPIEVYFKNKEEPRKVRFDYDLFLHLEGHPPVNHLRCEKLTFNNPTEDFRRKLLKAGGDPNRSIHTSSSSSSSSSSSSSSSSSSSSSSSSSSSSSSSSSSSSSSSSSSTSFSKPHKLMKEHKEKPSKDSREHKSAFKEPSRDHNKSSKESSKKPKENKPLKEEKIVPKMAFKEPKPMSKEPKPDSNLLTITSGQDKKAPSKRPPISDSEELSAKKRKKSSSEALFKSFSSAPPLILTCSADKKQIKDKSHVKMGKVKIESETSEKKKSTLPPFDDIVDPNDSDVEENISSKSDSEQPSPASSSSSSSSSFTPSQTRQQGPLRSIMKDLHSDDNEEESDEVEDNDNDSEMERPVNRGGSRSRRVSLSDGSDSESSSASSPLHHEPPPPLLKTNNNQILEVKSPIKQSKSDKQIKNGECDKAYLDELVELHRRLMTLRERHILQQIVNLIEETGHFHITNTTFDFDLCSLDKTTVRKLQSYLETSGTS
rRNA inh HTS – selective bacterial rRNA inhibition in E. coli | GFP signal change (wild-type ribosome), % (no concentration beside the values) | E. coli WT GFP vs humanized-ribosome RFP mutants, fluorescence, 24 h; stronger effect = lower value; DMSO median 0, no signal -100 | 350,000 tested, 1.6% active;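 active = significant combined selectivity score with lowered wild-type GFP, culture density cut under 30%, mutant RFP and density less affected; inactive = any of these conditions unmet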; note: one replicate is shown; some compounds called inactive have numbers as strong as hits
rRNA inh HTS OD600 – second read-out of rRNA inh HTS, no call of its own (marks repeat the call); OD600 change, %; measured here: OD600 growth;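 optical density of the mix in the first replicate; 0 = DMSO median and -100 = no signal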
rRNA inh HTS RFP – further read-out of rRNA inh HTS, marked with its call; RFP signal change, %; measured here: RFP humanized mutant strains;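 first replicate; 0 = DMSO median and -100 = no signal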
* marks the source's active call; other numbers are inactive results; i = inactive; & = joins results of further samples. The list is partial. The share of hits here may be higher or lower than overall.

compound	FGF22 binding	AF4-AF9 inh	rRNA inh HTS	rRNA inh HTS OD600	rRNA inh HTS RFP
COc1ccc(NC(=O)Nc2ccc3c(c2)CC(=O)N([C@H](C)CO)C[C@@H](C)[C@@H](CN(C)Cc2ccccc2)O3)cc1	i	1.6	-6	-9	6.4
Nc1ccc(N=Nc2ccc(O)cc2)c(N)n1	i	7.5	-16*	-5.7*	-1.9*
CNC[C@H]1Oc2cc(C#CCC3CCCC3)ccc2S(=O)(=O)N([C@H](C)CO)C[C@H]1C	i	7.9	-8	-7	-1.3
O=C(CN1CCOCC1)N[C@H]1CC[C@@H](CCn2cc(C3CCCCC3)nn2)O[C@H]1CO	i	2.0	1	3	-1.0
CCOC(=O)C1=C(COC(=O)c2cc([N+](=O)[O-])ccc2Cl)NC(=O)NC1C (configuration not stated)	i	3.5	1	3	-1.1
O=C(CSc1nc2ccc(Nc3nc(N4CCOCC4)nc(N4CCOCC4)n3)cc2s1)Nc1ccccc1	i	-6.0	9	-2	0.4
CC1=C(C(=O)N(C)C)CC(CC(=O)NCCCN(C)C)C(=O)N1Cc1ccc(F)cc1 (configuration not stated)	i	-2.5	15	14	-1.0
N#Cc1cccc(-c2ccc3c(c2)[C@H]2[C@H](CCN2C(=O)c2ccccc2F)[C@@H](CO)N3)c1	i	2.9	-42	-56	1.1
COCC(=O)N1C[C@@H](C)[C@@H](OC)CN(C)C(=O)c2ccc(NC(=O)C3CCC3)cc2OC[C@@H]1C	i	-3.9	0	5	-1.6
CC(=O)N(C)C[C@@H]1Oc2cc(-c3cccc(C#N)c3)ccc2S(=O)(=O)N([C@@H](C)CO)C[C@H]1C	i	1.1	-5	-10	-3.0
CN(C)C(=O)[C@H]1[C@H](CO)[C@H]2Cn3c(ccc(-c4ccccc4F)c3=O)[C@@H]1N2C(=O)c1cccnc1	i	-1.4	4	8	-3.1
COc1ccccc1CC(=O)Nc1cc(C)on1	i	-0.4	8	8	-1.2
CN1C(=O)c2cc(NC(=O)Cc3ccccc3)ccc2OC[C@H]2O[C@@H](CC(=O)NC3CCC3)CC[C@@H]21	i	-0.4	3	-6	-1.9
C[C@@H]1CCCCO[C@H](CN(C)Cc2ccccc2)[C@H](C)CN([C@H](C)CO)C(=O)c2cc(NC(=O)NC3CCCCC3)ccc2O1	i	8.4	-8	-46	28
COc1ccc(CN2C[C@H](O)COC[C@@H]3O[C@H](CC(=O)N4CCc5ccccc5C4)CC[C@H]32)cc1	i	1.1	-7	-15	-3.2
Nc1[nH]c(C(=O)c2ccccc2)c(-c2ccc(Cl)cc2Cl)c1C(=O)c1ccc(Cl)c(Cl)c1	i	-0.5	-6	1	2.8
C[C@@H]1CN([C@H](C)CO)C(=O)c2cc(NC(=O)Cn3cnnn3)ccc2O[C@@H]1CN(C)Cc1ccc(C(=O)Nc2ccccc2N)cc1	i	3.4	-1	-3	-0.9
Clc1cccc(-c2nc3ccc(Br)cn3c2Cc2ccccc2)c1	i	1.3	-27	-36	-0.3
CN(C)C(=O)C[C@H]1C[C@H]2c3cc(NC(=O)NC4CCCC4)ccc3O[C@H]2[C@H](CO)O1	i	2.1	2	2	-1.5
Cc1noc(C)c1NC(=O)Nc1cccc2c1O[C@@H](CN(C)S(=O)(=O)c1cccs1)[C@H](C)CN([C@@H](C)CO)C2=O	i	-1.8	-2	-10	-2.3
O=C(NCc1cc(C(F)(F)F)ccc1Cl)c1cccc2c1C(=O)c1ccc(N3CCC(N4CCCCC4)CC3)cc1S2(=O)=O	i	-9.0	1	-4	-0.7
C[C@@H]1CN([C@@H](C)CO)C(=O)c2cccc(NS(=O)(=O)c3ccc(Cl)cc3)c2O[C@H]1CN(C)Cc1ccc(Oc2ccccc2)cc1	i	0.2	2	3	0.0
CC(C)C[C@H]1CNC(=S)N1C[C@H]1CCCN1C[C@H](CC(C)C)N1C[C@H](CC(C)C)N(CCc2ccccc2)C1=S	i	3.5	16	18	2.9
O=C1c2ccccc2C(c2nnnn2-c2ccc3c(c2)OCCO3)N1CCc1c[nH]c2ccccc12 (configuration not stated)	i	2.4	-21	-18	4.3
C[C@H](CO)N1C[C@H](C)[C@@H](CN(C)Cc2cccc(F)c2)OCc2ccccc2-c2ccccc2C1=O	i	-4.8	-4	-7	-2.2
COc1ccc2c3c(n(C)c2c1)[C@H](CO)N(Cc1cccc(F)c1)CC31CN(C)C1	i	0.7	-1	0	3.5
COc1ccccc1-c1ccc([C@H]2[C@H](CO)N3CCCCN(C(=O)CN4CCOCC4)C[C@@H]23)cc1	i	1.0	1	4	0.4
C[C@@H]1CN([C@@H](C)CO)C(=O)c2cc(NS(=O)(=O)c3ccccc3)ccc2O[C@@H]1CN(C)Cc1ccncc1	i	-6.3	0	6	1.4
Cc1noc(C)c1S(=O)(=O)N(C)C[C@@H]1OCCCC[C@@H](C)Oc2ccc(NS(=O)(=O)c3ccc(Cl)cc3)cc2C(=O)N([C@@H](C)CO)C[C@@H]1C	i	0.5	-1	-1	-2.6
C[C@H]1CN([C@@H](C)CO)C(=O)CCCn2cc(nn2)CO[C@@H]1CN(C)C(=O)c1ccc(N2CCN(C)CC2)cc1	i	-2.0&-3.9	2&23	2&10	0.7&-2.2
O=C(O)C1=CCC=CC1C(=O)O (configuration not stated)	i	-4.9	9	14	1.4
COc1ccccc1-c1cnc2c(c1)C(=O)N([C@H](C)CO)C[C@H](C)[C@@H](CN(C)C(=O)c1ccccc1)O2	i	-3.3	-7	-3	3.8
CO[C@H]1CN(C)C(=O)c2ccc(NC(=O)c3ccccc3F)cc2OC[C@H](C)N(CC2CC2)C[C@@H]1C	i	-7.1	-2	-7	-0.8
COc1ccc(S(=O)(=O)N2CC[C@@H]3[C@H](CO)Nc4ccc(C#Cc5cccnc5)cc4[C@@H]32)cc1	i	0.6	-1	-2	-3.3
CC(C)CC#Cc1ccc2c(c1)O[C@H](CN(C)C)[C@H](C)CN([C@@H](C)CO)S2(=O)=O	i	3.0	5	2	-2.0
CO[C@H]1CN(C)C(=O)c2cc(NC(=O)Nc3ccccc3F)ccc2OC[C@@H](C)NC[C@H]1C	i	-12	4	1	0.2
Cc1ccc2oc(=O)c3cc(C(=O)NCCCN4CCC(C)CC4)sc3c2c1	i	1.1	-9	-8	-4.4
C[C@H]1CN([C@@H](C)CO)C(=O)c2cc(NC(=O)C3CC3)ccc2O[C@@H]1CN(C)S(=O)(=O)c1ccc(F)cc1	i	-1.8	3	1	-0.6
Cc1noc(C)c1NC(=O)N(C)C[C@@H]1Oc2ncc(C#CCC(C)C)cc2C(=O)N([C@H](C)CO)C[C@H]1C	i	-0.8	0	-3	0.2
Cc1cnc(C)c(Nc2nc(C(N)Cc3ccc(C(F)(F)F)cc3)cs2)n1 (configuration not stated)	i	12	-57	-77	-19
COc1ccc(C(C(=O)Nc2ccc3c(c2)OCCO3)n2c(=O)c(-c3cc4ccccc4[nH]3)nc3ccccc32)cc1 (configuration not stated)	i	-9.8	17	22	3.3
C[C@H]1CN([C@@H](C)CO)C(=O)Cc2cc(NC(=O)CCCN(C)C)ccc2O[C@@H]1CN(C)C(=O)Nc1ccc2c(c1)OCO2	i	-6.6	1	3	0.2
O=C(C[C@@H]1CC[C@H]2[C@@H](COC[C@@H](O)CN2C(=O)Nc2cc(Cl)cc(Cl)c2)O1)N1CCCCC1	i	0.8	-50	-64	-0.2
Cc1noc(C)c1NC(=O)Nc1ccc2c(c1)C(=O)N([C@H](C)CO)C[C@@H](C)[C@H](CN(C)C(=O)Nc1ccc(C(F)(F)F)cc1)O2	i	-0.6	2	3	-1.7
CN1C[C@@H]2[C@H](c3ccccc31)[C@@H](CO)N2C(=O)C1CCOCC1	i	-0.6	0	-4	-0.8
COc1ccc(NC(=O)N(C)C[C@H]2OCCCC[C@@H](C)Oc3ccc(NS(=O)(=O)c4ccc(F)cc4)cc3C(=O)N([C@@H](C)CO)C[C@@H]2C)cc1	i	3.6	5	3	5.6
C[C@@H]1CCCCO[C@@H](CN(C)C(=O)Nc2ccc(F)cc2)[C@@H](C)CN([C@@H](C)CO)C(=O)c2cc(NC(=O)CCC(F)(F)F)ccc2O1	i	-2.5	6	6	2.5
C[C@@H]1CCCCO[C@@H](CN(C)C(=O)CCCN(C)C)[C@@H](C)CN([C@H](C)CO)C(=O)c2cc(NS(=O)(=O)c3ccc(Cl)cc3)ccc2O1	i	-3.9	1	1	1.6
CO[C@H]1CN(C)C(=O)c2ccc(NS(=O)(=O)c3ccccc3)cc2OC[C@H](C)N(C(=O)NC(C)C)C[C@@H]1C	i	1.8	-1	1	1.2
CCCC(=O)Nc1ccc2c(c1)OC[C@@H](C)N(Cc1nccs1)C[C@@H](C)[C@H](OC)CN(C)C2=O	i	-2.1	0	0	-3.1

(more compounds)
Molecule | FGF22 binding | AF4-AF9 inh | rRNA inh HTS | rRNA inh HTS OD600 | rRNA inh HTS RFP
Cc1c(Cc2ccccc2)[n+](=O)c2ccccc2n1[O-] | i | 1.5 | -3 | 7 | 0.7
CCC(=O)Nc1ccc2c(c1)C(=O)N(C)C[C@@H](OC)[C@@H](C)CN(Cc1ccccc1)[C@@H](C)CO2 | i | 0.7 | 5 | 8 | 1.1
CO[C@@H]1CN(C)C(=O)c2ccc(NC(=O)C3CCCC3)cc2OC[C@H](C)NC[C@@H]1C | i | -0.5 | 4 | 8 | -1.0
C[C@H]1CCCCO[C@@H](CN(C)C(=O)NC2CCCCC2)[C@@H](C)CN([C@@H](C)CO)C(=O)c2cc(NS(=O)(=O)c3ccccc3)ccc2O1 | i | 0.3 | -2 | -9 | 1.3
CO[C@H]1CN(C)C(=O)c2cc(NC(=O)C3CC3)ccc2OC[C@H](C)N(C)C[C@H]1C | i | -1.4 | 2 | -1 | 0.8
CCN(CC(=O)Nc1c(F)cccc1F)C(=O)Cc1ccc(S(=O)(=O)N2CCOCC2)s1 | i | -13 | 4 | 1 | -0.9
COc1ccc(NC(=O)N(C)C[C@H]2Oc3ccc(NC(=O)Nc4ccccc4)cc3C(=O)N([C@@H](C)CO)C[C@H]2C)cc1 | i | 2.9 | -3 | -2 | 1.6
CCNC(=O)C[C@H]1CC[C@@H]2[C@@H](COc3ccc(NC(=O)Cc4ccccc4)cc3C(=O)N2C)O1 | i | -0.9 | 0 | 0 | 0.2
C[C@H]1CN([C@@H](C)CO)C(=O)CCCn2nncc2CO[C@H]1CN(C)Cc1ccccc1C(=O)O | i | -16 | 2 | 4 | -0.4
CCCS(=O)(=O)NC(=O)C1(C)CCCN(C(=O)c2ccccc2)C1 (configuration not stated) | i | -2.4 | 14 | 15 | 0.7
C[C@H](CO)N1C[C@H](C)[C@@H](CN(C)C(=O)Nc2cccc3ccccc23)Oc2ccc(NC(=O)Nc3ccc4c(c3)OCO4)cc2CC1=O | i | 2.1 | -7 | -3 | -3.9
C[C@H](CO)N1C[C@H](C)[C@H](CN(C)S(C)(=O)=O)Oc2cc(Br)ccc2S1(=O)=O | i | -0.4 | 4 | 0 | -5.1

A second format for some results above:
Values run as follows: FGF22 binding, AF4-AF9 inh, rRNA inh HTS, rRNA inh HTS OD600, rRNA inh HTS RFP
C[C@H]1CCCCO[C@@H](CN(C)C(=O)NC2CCCCC2)[C@@H](C)CN([C@@H](C)CO)C(=O)c2cc(NS(=O)(=O)c3ccccc3)ccc2O1
    i, 0.3, -2, -9, 1.3
CO[C@H]1CN(C)C(=O)c2cc(NC(=O)C3CC3)ccc2OC[C@H](C)N(C)C[C@H]1C
    i, -1.4, 2, -1, 0.8
CCN(CC(=O)Nc1c(F)cccc1F)C(=O)Cc1ccc(S(=O)(=O)N2CCOCC2)s1
    i, -13, 4, 1, -0.9
COc1ccc(NC(=O)N(C)C[C@H]2Oc3ccc(NC(=O)Nc4ccccc4)cc3C(=O)N([C@@H](C)CO)C[C@H]2C)cc1
    i, 2.9, -3, -2, 1.6
CCNC(=O)C[C@H]1CC[C@@H]2[C@@H](COc3ccc(NC(=O)Cc4ccccc4)cc3C(=O)N2C)O1
    i, -0.9, 0, 0, 0.2

Next part
Molecule | FGF22 binding | AF4-AF9 inh | rRNA inh HTS | rRNA inh HTS OD600 | rRNA inh HTS RFP
COc1ccccc1CNC(=O)C[C@H]1C[C@H]2c3cc(NC(=O)C4CCC4)ccc3O[C@H]2[C@@H](CO)O1 | i | -2.1 | 4 | 1 | 0.9
Cc1cc(C)c(C(O)c2ncc(-c3ccccc3Cl)[nH]2)c(C)c1 (configuration not stated) | i | 2.2 | -40 | -65 | -13
CC=Cc1ccc2n(c1=O)C[C@@H]1[C@@H](CO)[C@H](C(=O)NCc3ccccn3)[C@H]2N1C (mixture of isomers) | i | -2.4 | 3 | 19 | 2.2
CCC(=O)N1C[C@@H](C)[C@@H](OC)CN(C)C(=O)c2cc(NC(=O)CC(F)(F)F)ccc2OC[C@@H]1C | i | -4.2 | 1 | 2 | 2.1
CC[C@H](NC(=O)/C=C/[C@H]1O[C@@H](n2cc(C)c(=O)[nH]c2=O)C[C@@H]1O)c1ccccc1 | i | 1.1 | 6 | 12 | 21
O=C(Cn1cc(COc2cc(F)cc(F)c2)nn1)c1ccc(O)cc1 | i | -3.3 | -12 | -12 | 0.5

High-throughput results (PubChem BioAssay)
